Mtb hypoxia inh: reduces hypoxia-regulated biosensor signal in M. tuberculosis | M. tuberculosis hypoxia-regulated fluorescent reporter, fluorescence | fluorescence inhibition, % (no concentration beside the values) | actives 0.1% (n = 300,000) | AID 1159583;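 active means 35 to 45% if threefold the growth effect, above 45% if 1.5-fold the growth effect; inactive means the rest, general growth blockers included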;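 further: wells of about 50 µL received 100 nL stock; 0% = vehicle wells and 100% = reference inhibitor wells; whole bacteria with a GFP reporter of the hypoxia response; strong numbers were not always called active; many hits fall short of the cut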
PrP 5UTR inh: suppresses PrP 5' UTR mRNA reporter expression; cell-based PrP 5' UTR mRNA reporter, plate reader; inhibition, % (no concentration beside the values); actives 0.35% (n = 340,000); AID 488862;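 active means every replicate at 50% or more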;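 further: 0 = median of the neutral control wells; tested in H4 reporter cells; numbers are from one replicate; inactives centre near -14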
Sa RN4220 lethal: kills Staphylococcus aureus RN4220 | S. aureus RN4220 growth, OD600, 16 h | inhibition, % (concentration not given with the values) | actives 0.33% (n = 330,000);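 active means z-score of -3 or lower and OD600 up to 0.18 on both plates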;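 further: plate controls were untreated cells for no effect and reference antibiotic for full effect; stock transfer was 100 nL into about 80 µL; one replicate is shown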
Autofluor counter: compound fluorescence in toxin protease inhibitor counterscreen; compound autofluorescence counterscreen, microsphere flow cytometry; stronger effect = higher value; fluorescence intensity (test concentration not listed); actives 3.1% (n = 360,000); AID 624483;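 active means at least 3 SD above the mean of all compounds, about 16000 in these data; inconclusive means too few beads counted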;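 further: 100 nL of 1 mM stock went into each well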
BJeLR lethal: kills HRASV12-expressing BJeLR cells; BJeLR (HRASV12) viability, CellTiter-Glo ATP luminescence, 48 h; reference of the scale not given here; inhibition, % (test concentration not listed); AID 1554; actives 0.17% (n = 300,000);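 active means replicate mean above 50%; inconclusive means above 50% but judged a plate artefact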;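 further: 50 nL library stock added to about 25 µL; numbers are from one replicate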
Sa ugtP lethal: compounds lethal to S. aureus RN4220 ugtP deletion mutant; actives 0.54% (n = 330,000); growth inhibition, % (no concentration beside the values); OD600 growth, 16 h; some inactives read as strong as hits;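 active means z-score under -3 and OD600 up to 0.15 on both plates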;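 further: plate controls were untreated wells for no effect and antibiotic for full effect; wells of about 80 µL received 100 nL stock; the first replicate is given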
Mtb hypoxia inh growth: also measured in Mtb hypoxia inh; calls as there; growth inhibition, %; measured here: M. tuberculosis growth (absorbance);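 0% = vehicle and 100% = reference antibiotic; read after six days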
Active calls of the source: *; u = inconclusive; x = not tested or not shown.

nr	Molecule	Mtb hypoxia inh	Mtb hypoxia inh growth	PrP 5UTR inh	Sa RN4220 lethal	Autofluor counter	BJeLR lethal	Sa ugtP lethal
1	O=C(NCC(c1ccco1)N1CCN(c2ccc(F)cc2)CC1)C(=O)NC1CC1 (stereo not drawn)	6	2	-4	3.2	4555	5	12
2	CCOC(=O)c1sc(NC(=O)CSc2nc3ccccc3o2)c(C(=O)OCC)c1C	8	2	-29	1.3	2443	6	-10
3	COc1ccc(OCC(=O)Nc2ccc3oc(-c4ccncc4)nc3c2)cc1	-9	9	-31	3.2	2660	7	0
4	Brc1ccc(C2=CSC3=NCCN23)cc1	15	11	-22	-0.4	4136	-2	4
5	CC(C)C(=O)Nc1ccc(NC(=O)c2cccc3c(Br)cccc23)cc1	-6	0	-8	1.3	3581	5	12
6	Cc1sc2nc(COC(=O)CNC(=O)c3ccc(C(C)(C)C)cc3)[nH]c(=O)c2c1C	1	6	-10	3.0	2524	-20	10
7	CCn1c(=O)c(C(=O)Nc2ccc(C)cc2)c(O)c2ccccc21	13	9	-23	-7.6	3848	4	30
8	Cc1ccc(NC(=O)C2C3CCC(O3)C2C(=O)O)c(Br)c1 (stereo not drawn)	-3	-1	-18	1.8	4371	-2	2
9	Cc1ccc(C)c(-n2ccnc2SCC(=O)Nc2cccc(S(=O)(=O)NC3=NCCC3)c2)c1	17	8	-15	6.4	3428	x	0
10	O=[N+]([O-])c1ccc(Cl)cc1	11	7	-20	6.2	5738	x	4
11	CC(NC(=O)c1ccccc1NC(=O)CSc1nnnn1C)c1ccccc1 (stereo not drawn)	x	x	-6	2.2	2727	-1	-4
12	O=C(Nc1ccccc1C(F)(F)F)c1cccnc1	11	11	-13	3.6	3951	-6	5
13	COc1ccccc1-c1nn(-c2ccccc2)cc1C(=O)N1CCc2ccccc2C1	2	4	-14	5.6	u	x	-8
14	O=C(Nc1cccc(C(F)(F)F)c1)c1cc(-c2cccs2)on1	4	1	-24	0.8	11370	-7	4
15	COc1cc(OC)c2c(c1)O/C(=C\c1ccccc1)C2=O	12	6	x	22	x	4	-5
16	CCOC(=O)c1[nH]c2ccc(Br)cc2c1NC(=O)CCN1CCN(C(=O)OCC)CC1	9	14	-10	-1.5	4757	6	-7
17	COc1cc(/C=C2\SC(=O)N(CCNC(=O)c3c(C)noc3C)C2=O)cc(OC)c1OC	-1	-1	0	-0.3	2864	x	-4
18	O=C1CC(c2ccccc2)=NO1	22	11	-9	2.7	3948	x	-1
19	CCN(CC)S(=O)(=O)c1ccc(C)c(NC(=O)COc2ccc(Cl)cc2Br)c1	1	7	-26	7.2	2417	3	-7
20	O=C1CCN(CCc2ccccc2)CCN1C(CSc1ccc(Br)cc1)c1ccccc1 (stereo not drawn)	18	7	x	4.5	x	x	5
21	CCCCn1c(=O)c(CCC(=O)OC(C)C(=O)Nc2cccc(Cl)c2Cl)nc2ccccc21 (stereo not drawn)	2	3	4	0.5	2652	4	-2
22	Cn1cnc2cc(NC(=O)c3ccco3)ccc21	-3	8	-69	2.7	10168	-5	5
23	COc1ccccc1CCNS(=O)(=O)c1cn(C)c(=O)n(C)c1=O	4	-16	1	4.1	4723	9	-1
24	CCOC(=O)C(C)Sc1nnc(Cc2cc(=O)[nH]c(=O)[nH]2)n1-c1ccc(Cl)cc1 (stereo not drawn)	x	x	-27	-1.9	5669	-2	-9
25	Cc1ccc(Cl)cc1NC(=O)CN1C(=O)NC2(CCCCCC2)C1=O	4	-2	-12	5.5	x	x	8
26	C=CCNC(=O)C(C#N)=Cc1c(N(Cc2ccccc2)Cc2ccccc2)nc2ccccn2c1=O	-5	5	x	-0.5	x	x	-7
27	COc1ccc(CNC(=O)CN2C(=O)NC(C)(c3ccc(C(C)(C)C)cc3)C2=O)cc1 (stereo not drawn)	16	7	-16	-4.4	3752	-14	1
28	CCNC(=S)Nc1ccc(Cl)cc1	11	7	-14	2.3	2599	0	12
29	O=C(NCc1ccccc1)c1ccc2nnsc2c1	x	x	-10	-2.4	6230	12	-2
30	COc1ccc(-n2cc(C#N)c(=O)n(Cc3ccc(F)cc3)c2=O)cc1	10	6	-33	3.8	4811	0	-1

The final two compounds of the section before open the next one.
nr	Molecule	Mtb hypoxia inh	Mtb hypoxia inh growth	PrP 5UTR inh	Sa RN4220 lethal	Autofluor counter	BJeLR lethal	Sa ugtP lethal
29	O=C(NCc1ccccc1)c1ccc2nnsc2c1	x	x	-10	-2.4	6230	12	-2
30	COc1ccc(-n2cc(C#N)c(=O)n(Cc3ccc(F)cc3)c2=O)cc1	10	6	-33	3.8	4811	0	-1
31	Cc1cc(C)nc(SCC(=O)NN=Cc2sccc2C)n1	3	9	x	1.2	x	x	-1
32	COc1cccc(C2CC(c3ccc(C)cc3)Nc3nc(N)nn32)c1 (stereo not drawn)	x	x	-2	2.9	5977	0	10
33	Cc1ccc(C(=O)N/N=C(\CC(C)C)c2ccccc2)cc1	x	x	-21	x	10460	-9	x
34	CCOC(=O)/C(=C\c1ccc(Cl)cc1)c1nc2sc(C)c(C)c2c(=O)[nH]1	10	12	-41	16	2736	-1	35
35	CCN(CC)S(=O)(=O)c1cc(C(=O)Nc2cc(C)on2)ccc1Cl	0	0	6	2.9	4589	4	1
36	O=C(c1ccc(S(=O)(=O)c2ccc(F)cc2)c([N+](=O)[O-])c1)N1CCCCCC1	2	3	-19	-1.2	8843	-1	1
37	CCOC(=O)C1CCCN(CC(=O)Nc2c(C(=O)OC)[nH]c3ccc(Br)cc23)C1 (stereo not drawn)	-10	5	-4	-12	3137	1	-21
38	CCc1ccccc1NC(=O)CN(C)C(=O)CSc1nn(-c2ccc(F)cc2)c(=S)s1	1	1	-31	4.9	2466	-7	-6
39	CCCN(CCC)S(=O)(=O)c1cc(Br)cc2c1N(C(=O)CC)CC2	-6	-6	-5	11	9637	-6	-7
40	CCC(CC)NC(=O)c1ccc(Cl)cc1	x	x	-43	2.7	2265	-22	2
41	CCOc1ccccc1N(CC(=O)NC1CCCC1)C(=O)CNC(=O)c1cccs1	11	2	-20	1.8	3364	-3	-2
42	Cc1ccccc1NC(=O)c1cccc(N2C(=O)C3CCCCC3C2=O)c1 (stereo not drawn)	4	13	2	-1.9	3800	2	-1
43	O=C(Nc1ccsc1C(=O)O)c1ccccc1Cl	10	-4	-3	6.3	3033	7	9
44	COc1ccc(S(=O)(=O)N2CCc3ccccc32)cc1C(=O)NC1(C)CCS(=O)(=O)C1 (stereo not drawn)	10	3	-7	8.5	3052	x	11
45	NNC(=O)COc1ccc2oc3c(c2c1)CCCC3	11	10	-19	7.2	3503	-10	10
46	CCCCc1nc2cc(C(=O)N3CCCC(OCCC)C3)ccc2o1 (stereo not drawn)	12	11	-54	3.0	5298	4	5
47	CCN(CC)S(=O)(=O)c1ccc(NS(=O)(=O)CC23CCC(CC2=O)C3(C)C)cc1 (stereo not drawn)	-3	1	-56	3.5	2243	3	-4
48	C(=N\c1c(-c2ccccc2)nc2n1CCS2)/c1ccccc1	x	x	-3	x	3635	-5	x
49	CC(C)c1ccc(OCC(=O)NNC(=S)NC(=O)c2cccs2)c(Br)c1	9	0	-8	69	4589	-4	55
50	O=S(=O)(NCC(c1cccnc1)N1CCN(Cc2ccccc2)CC1)c1ccccc1 (stereo not drawn)	-4	-8	-3	7.6	5181	12	17
51	COCCNc1ccc([N+](=O)[O-])cc1C(=O)NC1CCCc2ccccc21 (stereo not drawn)	4	-6	-7	1.3	4106	4	-7
52	O=C(O)c1ccc([N+](=O)[O-])c(CS(=O)(=O)c2ccc(Cl)cc2)c1	-6	9	-8	-0.2	2066	2	11
53	COc1ccc(-c2csc(NC(=O)CC(C)C)n2)cc1	x	x	-55	2.0	3598	-1	10
54	Cc1nc(CC(=O)NN=Cc2ccc(OCC(=O)O)cc2)cs1	-12	-4	x	2.8	x	x	-2
55	CCC(C(=O)NC1CCCCC1)n1c(SCc2cccc(C)c2)nc2ccncc21 (stereo not drawn)	3	1	-13	-16	5323	-7	1
56	CCN1CCN(C(=O)COc2ccc(S(=O)(=O)N3CCOCC3)cc2Cl)CC1	0	5	-10	-0.7	5497	-5	14
57	NS(=O)(=O)c1ccc(NC(=O)C2C3C=CC(C3)C2C(=O)O)cc1 (stereo not drawn)	4	7	-6	1.1	3561	-11	1
58	O=C(COC(=O)CC12CC3CC(CC(Br)(C3)C1)C2)NC(=O)NCc1ccco1	-1	5	-12	3.0	4620	-2	3
59	CC1(C)Cc2c(sc(NC(=O)c3ccccc3Cl)c2C(=O)O)CO1	-3	2	-35	6.9	4116	2	1
60	Cn1c(=O)cc(SCC(=O)NCC2CCCO2)c2ccc(Cl)cc21 (stereo not drawn)	7	2	-6	2.7	4228	-3	4
61	CCC(C)NC(=O)Cn1c(=O)sc2ccccc21 (stereo not drawn)	0	-1	-12	2.4	4814	3	0
62	CCOc1ccc(C(=O)N2CCn3c2nc2ccccc23)cc1	-4	3	-24	2.6	5440	12	0
63	CNC(=O)c1ccc(Nc2nnc(-c3ccc(C(N)=O)cc3)c3ccccc23)cc1	-3	-4	-13	-1.0	2989	-5	0
64	CC1CCCC(C)N1C(=O)COc1ccc([N+](=O)[O-])cc1Cl (stereo not drawn)	3	8	-43	7.8	4506	7	11
65	COc1cccc(/C=N/Nc2nn3cnnc3c3ccccc23)c1O	x	x	-4	x	2529	13	x
66	Cc1cc(=O)[nH]c(SCC(=O)Nc2ccc(C(=O)O)cc2)n1	-4	7	-23	-3.8	5638	1	-3
67	CN1C(=O)/C(=C2\SC(N)=NC2=O)c2ccccc21	x	x	-43	x	3771	-4	x
68	COc1ccc(NC(=S)NC23CN4CN(CN(C4)C2)C3)c(OC)c1	9	0	-17	-0.2	4397	-6	1
69	O=C(Cc1cscn1)c1ccc(O)cc1O	x	x	-11	-2.4	5189	x	4
70	Cc1cccc(C)c1NC(=O)CS(=O)CC(=O)NCC1OCCc2ccccc21 (stereo not drawn)	7	3	-8	3.0	3287	-17	11
71	CC(C)C[C@H](NC(=O)NCc1ccc(Cl)cc1)C(=O)O	8	4	-17	20	2592	2	15
72	CC(C)CC(C)C(=O)N(Cc1ccccc1)c1ccccc1 (stereo not drawn)	5	3	x	5.0	x	x	8
73	O=C1C(c2ccc(F)cc2)N(C2CCCCC2)C(=O)CN1C1CCCC1 (stereo not drawn)	-6	12	-24	-2.8	9764	1	-11
74	CC(C)C(c1nnnn1Cc1cccs1)N1CCN(C(=O)c2ccco2)CC1 (stereo not drawn)	-5	12	-20	4.7	4030	3	3
75	CC1Cc2ccccc2N1C(=O)COc1cccc(-n2cnnn2)c1 (stereo not drawn)	9	6	-9	6.2	3320	2	10
76	O=C(c1cn(Cc2ccccc2)nc1-c1cccnc1)N1CCN(Cc2c(F)cccc2Cl)CC1	-1	0	-23	0.9	8135	x	4
77	CO/N=C/c1cc([N+](=O)[O-])ccc1Sc1ccc(C)cc1	x	x	0	x	21195*	-8	x
78	COC(=O)COc1ccccc1C(=O)Nc1ccc(OC)cc1	-11	-5	-12	4.0	2051	-3	1
79	Cc1nonc1NC(=O)c1ccc(Cl)c(S(=O)(=O)N2CCCCC2)c1	9	7	-6	16	2956	0	10
80	CCN(Cc1ccccc1)S(=O)(=O)c1cn(C)cn1	-9	-7	-15	1.6	5642	-5	3
81	C=CCOc1c(CNC2CCCC2)cc(Cl)cc1OC	-8	-2	-6	5.9	4780	12	3
82	CCOC(=O)c1ccc(NS(=O)(=O)c2cc3c4c(c2)CCN4C(=O)CC3)cc1	-3	-6	-10	9.4	4855	8	7
83	CCN(CC)c1ccc(C(=O)NNC(=O)CN2C(=O)NC(C)(c3ccccc3)C2=O)cc1 (stereo not drawn)	4	3	-10	3.2	3926	x	1
84	Cc1ccc2nc(SCc3nnc(-c4ccccc4)o3)[nH]c2c1	17	12	-6	6.1	2869	-11	4
85	CC12CCC(C(=O)Nc3ccccc3)(CC1=NO)C2(C)C (stereo not drawn)	2	9	x	-2.3	x	x	-7

Compound activity deposited in PubChem by several laboratories.
